Assay outcomes (PubChem)
MT1-MMP act inh = MT1-MMP (human) activation inhibition; P50281; HT1080 RFP-PRO-GFP cells, GFP/RFP ratio fluorescence, overnight; percent of plate control window, DMSO zero; GFP/RFP ratio change, % at 20 µM; actives 0.061% (n = 360,000);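 active = GFP/RFP ratio change of at least 30% with cell ATP level not reduced by more than half and red fluorescence within 50% of control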; also: strong numbers were not always called active
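Assay system: HT1080 cells carrying an RFP-PRO-GFP reporter | Dosing: Single dose of 20 µM compound, 1% DMSO final | Incubation: Cells overnight before dosing, compound overnight, 37 °C, 5% CO2 | Evaluation: GFP/RFP fluorescence ratio | Control set: DMSO and RFP-L50D-GFP cell wells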
Rce1 inhib = yeast Ras-converting enzyme inhibition | yeast membranes, quenched prenylated peptide cleavage fluorescence | calls only | actives 0.27% (n = 290,000);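 active = fall in fluorescence gain of 50% or more versus controls, with final raw signal at or below 3038400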;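 also: plate controls were neutral control wells for no effect and wells lacking membranes for full effect; tested at 10 µM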
Target sequence (Q03530 whole entry, looked up): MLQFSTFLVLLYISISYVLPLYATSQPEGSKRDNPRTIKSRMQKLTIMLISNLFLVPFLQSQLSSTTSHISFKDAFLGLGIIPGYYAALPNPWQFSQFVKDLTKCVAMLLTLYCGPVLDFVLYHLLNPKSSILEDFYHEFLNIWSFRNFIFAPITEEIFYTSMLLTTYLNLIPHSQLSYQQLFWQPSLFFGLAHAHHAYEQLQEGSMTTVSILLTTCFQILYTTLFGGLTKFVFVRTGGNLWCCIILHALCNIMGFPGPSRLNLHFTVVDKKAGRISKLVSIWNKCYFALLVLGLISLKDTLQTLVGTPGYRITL
eIF4H FP inh = inhibitors of RNA binding by human eIF4H. Q15056. eIF4H fluorescence polarization binding assay. inhibition, % at 35 µM. actives 0.94% (n = 290,000). AID 2012;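 active = 50% or more with normal probe brightness, or confirmed in later tests; about a fifth of its hits are not listed in these tables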;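 also: calls also rest on retests at 20 µM and on dose response follow-up; 0% = protein and probe with vehicle and 100% = probe without protein; strong numbers were not always called active; many hits fall short of the cut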
HIV Env fusion = blocks HIV Env-driven cell-cell fusion; actives 1.1% (n = 360,000); AID 651610; HeLa-JRFL Env/CEM21 cell fusion, luciferase; inhibition, % at 12.3 µM;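 active = mean replicate inhibition score of at least 50 and every replicate individually at or above 50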;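 also: 0% = plate neutral controls and 100% = maraviroc near 300 nM; one replicate is shown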
Yeast UUG start = yeast start codon fidelity modulation | S. cerevisiae UUG-firefly luciferase reporter, luminescence/redox ratio | activity score, % at 18.7 µM | actives 0.13% (n = 350,000);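 active = replicate mean at a twofold rise or more, about +100% in these data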;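 also: firefly luciferase made from a UUG start codon reports start codon fidelity; reporter light over untreated wells divided by growth signal over untreated wells; some hits fall short of that in this replicate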
CSC inhib = blocks cancer stem cells | cancer stem cell-like cells viability, luminescence | inhibition, % at 7.5 µM | actives 1.1% (n = 300,000) | AID 2717;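 active = mean at 75% or more and at least half the replicates too; tested in HMLE shEcad cells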;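 also: 0% = median of negative and 100% = median of positive control wells; the first replicate is given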
PABP FP inh = PABP-poly(A) binding inhibition; P11940; PABP-poly(A) RNA binding, fluorescence polarization; inhibition, % at 35 µM; actives 1% (n = 290,000);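 active = 50% or more with normal probe brightness, or confirmed in later tests; about a fifth of its hits are not listed in these tables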;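 also: calls also rest on retests at 20 µM and on dose response follow-up; controls were probe without protein and protein plus probe with vehicle; some compounds called inactive have numbers as strong as hits; many hits fall short of the cut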
Target sequence (P11940 whole entry, looked up): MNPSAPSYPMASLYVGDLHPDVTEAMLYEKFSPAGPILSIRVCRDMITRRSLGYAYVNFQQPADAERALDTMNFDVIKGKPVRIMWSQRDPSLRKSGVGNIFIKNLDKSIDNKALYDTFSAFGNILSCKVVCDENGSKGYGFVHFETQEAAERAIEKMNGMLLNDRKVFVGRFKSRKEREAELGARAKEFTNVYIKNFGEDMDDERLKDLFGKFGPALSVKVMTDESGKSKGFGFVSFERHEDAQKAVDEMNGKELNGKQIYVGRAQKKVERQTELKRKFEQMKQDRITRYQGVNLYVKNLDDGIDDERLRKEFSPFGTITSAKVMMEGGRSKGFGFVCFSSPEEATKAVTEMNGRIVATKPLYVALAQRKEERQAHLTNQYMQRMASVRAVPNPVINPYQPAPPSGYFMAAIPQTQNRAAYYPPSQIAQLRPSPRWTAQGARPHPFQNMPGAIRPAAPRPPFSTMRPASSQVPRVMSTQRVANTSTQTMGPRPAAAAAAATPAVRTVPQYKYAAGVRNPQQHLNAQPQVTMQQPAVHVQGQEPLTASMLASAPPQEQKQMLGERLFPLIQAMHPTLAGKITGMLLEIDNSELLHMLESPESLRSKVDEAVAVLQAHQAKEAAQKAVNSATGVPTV
eIF4H FP inh retest = recorded beside eIF4H FP inh, whose call it bears; inhibition, %; compound at 20 µM; confirmation average;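 mean of two retest wells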
PABP FP inh retest = second read-out of PABP FP inh, no call of its own (marks repeat the call); inhibition, %; compound at 20 µM; confirmation repeats;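 mean of two retest wells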
MT1-MMP act inh RFP = also measured in MT1-MMP act inh; calls as there; RFP signal change, %; measured here: RFP expression control read;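 0 = vehicle wells; hits needed this value within 50% of zero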
* hit, by the source's call; i = inactive; x = no result given; & = joins results of further samples.

SMILES | MT1-MMP act inh | MT1-MMP act inh RFP | Rce1 inhib | eIF4H FP inh | HIV Env fusion | Yeast UUG start | CSC inhib | PABP FP inh | others
COc1ccc(OC)c(C2=NOC(C(=O)Nc3cc(C)nn3-c3ccccc3)C2)c1 (stereo not given) | 2 | 1 | i | -6 | -27 | -12 | -18 | -17
O=C(COC(=O)c1cccc([N+](=O)[O-])c1)NCc1ccc2c(c1)OCO2 | 0 | 1 | x | 0 | 20 | -1 | -2 | -10
C/C(CC(=O)N1CCN(C=O)CC1)=N\NC(=O)c1ccc(Br)cc1 | 2 | 5 | i | -5 | 0 | -21 | -4 | 7
COc1cccc2cc(C(=O)C3=C(O)C(=O)N(CCN4CCOCC4)C3c3cccc(Cl)c3)oc12 (stereo not given) | -8 | 2 | i | 9 | 18 | -14 | -32 | 6
Cn1c(SCn2nnc3ccccc3c2=O)nc2ccccc2c1=O | x | x | i | -16 | x | x | 3 | 56 | eIF4H FP inh retest=3;PABP FP inh retest=-10
O=C(Nc1ccc(F)cc1)C1CCCN(S(=O)(=O)c2cccc3nonc23)C1 (stereo not given) | -1 | -2 | i | 1 | 13 | -19 | 10 | 5
O=C(O)CC(C(=O)O)N1C(=O)/C(=C/c2ccc(-c3nc4ccccc4s3)o2)SC1=S (stereo not given) | -13 | 12 | i | 127* | x | 4 | 2 | 118 | eIF4H FP inh retest=54*;PABP FP inh retest=23
CN(C)C(=O)c1cccn1-c1ncc(C(F)(F)F)cc1Cl | 1 | 3 | i | -2 | 17 | x | -9 | 4
O=C(Nc1nnc(S(=O)(=O)N2CCOCC2)s1)c1cccc(F)c1 | 1 | -6 | i | 5 | 12 | -14 | -1 | 2
Cc1ccc(C(C(=O)NCc2ccc(F)cc2)N(CCCO)C(=O)C2COc3ccccc3O2)o1 (stereo not given) | 0 | 0 | i | -7 | -3 | 22 | 4 | -4
CCC(=Nc1ccc(Cc2ccncc2)cc1)c1c(O)n(C)c(=O)n(C)c1=O | 2 | 0 | x | -5 | -24 | -22 | x | 3
Cc1occc1C(=O)NNC(=O)c1cccc(F)c1 | -2 | 4 | i | -18 | -20 | x | -4 | 0
COc1ccc(C(=O)NC2CC2)cc1OC1CCN(Cc2cnn(C)c2)CC1 | -1 | 2 | i | -9 | 13 | -3 | -17 | 5
O=C(CNCCO)N1N=C(c2cccs2)CC1c1cccs1 (stereo not given) | -2 | 1 | x | -1 | -1 | x | -6 | -8
C/C(=N\NC(=O)c1ccccc1F)c1cccc(NC(=O)c2ccc(C)cc2)c1 | 6 | 1 | i | 1 | -100 | -12 | 11 | 3

The last 2 compounds of the section before lead into the next:
SMILES | MT1-MMP act inh | MT1-MMP act inh RFP | Rce1 inhib | eIF4H FP inh | HIV Env fusion | Yeast UUG start | CSC inhib | PABP FP inh | others
O=C(CNCCO)N1N=C(c2cccs2)CC1c1cccs1 (stereo not given) | -2 | 1 | x | -1 | -1 | x | -6 | -8
C/C(=N\NC(=O)c1ccccc1F)c1cccc(NC(=O)c2ccc(C)cc2)c1 | 6 | 1 | i | 1 | -100 | -12 | 11 | 3
COc1ccccc1OCc1ccc(C(=O)n2nc(C)c(Cl)c2C)o1 | 3 | 4 | i | 11 | -39 | -4 | -4 | 11
COc1ccc(NC2CCCN(C(=O)CSc3ccncc3)C2)cc1 (stereo not given) | 2 | 1 | i | -10 | -35 | -24 | -12 | -7
COc1ccc(C(=O)Nc2ccc3c(c2)nc2n3CCSC2)cc1 | 3 | 3 | i | 4 | -149 | -25 | 4 | -4
O=S(=O)(Cc1ccccc1)C1CCCCC1O (stereo not given) | -2 | -1 | i | -12 | 8 | x | -8 | 1
O=C(NN=Cc1ccccc1Cl)c1ccc([N+](=O)[O-])cc1 | 5 | -3 | x | x | -13 | 0 | x | x
COCCNC(=O)c1sc(=O)n(Cc2ccc(SC)cc2)c1C | 2 | 1 | x | x | 0 | -13 | x | x
CCCCCn1c(SCC(=O)CC(=O)OCC)nc2cc(C(=O)N3CCC(C(N)=O)CC3)ccc2c1=O | -9 | 0 | x | 3 | 7 | x | -8 | 2
CCOc1cccc(C(=O)Nc2nccs2)c1 | -7 | -3 | i | -1 | x | -3 | 6 | 16
CN(C)CC(C)(C)CNc1ccc(S(=O)(=O)N2CCCC2)cn1 | 3 | 0 | x | x | x | 2 | 5 | x
Cc1cccc(-n2c(Cc3cc(=O)[nH]c(=O)[nH]3)nnc2SCC(=O)N2CCc3ccccc32)c1 | -4 | -2 | i | -5 | x | -13 | -30 | 10
CCCOc1ccc(C2c3c(oc4ccccc4c3=O)C(=O)N2CCCN2CCOCC2)cc1 (stereo not given) | -1 | 4 | i | 13 | x | 1 | 8 | 5
O=C(CCS(=O)(=O)Cc1ccccc1)Nc1nncs1 | 1 | 4 | i | 1 | 1 | x | 7 | -3
CCN(c1ccccc1)S(=O)(=O)c1ccc(C(=O)Nc2ncccc2C)cc1 | 3 | 0 | i | x | -19 | -12 | 19 | x
CC(=O)N1CCc2cc(S(=O)(=O)NCCC(=O)N3CCc4ccccc4C3)ccc21 | -1 | -2 | i | 1 | x | 5 | -14 | 6
Cc1ccc(S(=O)(=O)N2CCC(C(=O)OCC(=O)N(CC(C)C)C3CCS(=O)(=O)C3)CC2)cc1C (stereo not given) | 3 | 7 | i | -7 | -3 | -17 | -8 | 5
O=C(Nc1ccc2c(c1)OCO2)C1CCN(C(=O)c2cccs2)CC1 | 2 | 3 | i | -3 | x | -22 | x | 2
Cc1ccc(N2C(=O)C3C(C2=O)N2CCCN2C3c2ccccc2)cc1C (stereo not given) | 0 | 0 | i | -15 | 6 | x | 11 | -4
CCN(CC)S(=O)(=O)c1ccc(NC(=O)c2ccc(N(C)S(C)(=O)=O)cc2)cc1 | -7 | -28 | i | 0 | x | -3 | 4 | -15
CCCCCCNC(=O)CC(NS(=O)(=O)c1ccc(NC(C)=O)cc1)C(C)C (stereo not given) | -1 | 0 | i | -10 | 9 | 12 | 7 | -9
COc1cccc(-n2c(CN3CCN(c4cccc(C)c4)C(C)C3)nc3ccc([N+](=O)[O-])cc3c2=O)c1 (stereo not given) | -5 | -7 | i | -2 | x | -15 | 18 | 0
COc1ccc(N2C(=O)N(Cc3ccc(C)cc3)c3ccccc3S2(=O)=O)cc1 | 2 | -10 | i | 0 | 6 | -13 | 0 | 4
COc1ccc(N/N=C(/N=Nc2nc(C)cc(=O)[nH]2)c2ccccc2)cc1 | 7 | -3 | i | 24 | x | x | 4 | 4
O=C(NCCc1csc(-c2ccccc2)n1)c1ccco1 | -1 | 2 | i | 0 | -30 | -23 | 8 | -1
CCOc1ccc(-c2nnn(CC(=O)NCc3cccs3)n2)cc1 | 6 | 1 | i | -7 | -17 | -3 | 8 | -9
CCn1c(-c2ccccc2)c(C(=O)CCl)c2ccccc21 | -13 | -1 | i | -7 | 41 | x | 1 | -4
CC(=O)NCCNC(=O)c1ccc(-n2c(C)ccc2C)cc1 | -1 | 3 | i | 9 | -29 | -8 | -5 | 45
CCOC(=O)CSC1=C(C#N)C(c2ccco2)C(C(=O)OCc2ccccc2)=C(C)N1 (stereo not given) | -4 | -6 | i | -3 | x | -5 | -3 | 3
Cc1cc(NC(=O)c2cccs2)no1 | -1 | 2 | i | 2 | 0 | -19 | -10 | 0
O=C(N/N=C/c1cc(Br)c(O)c(Br)c1)c1cc2c(ccc3ccccc32)o1 | -2 | -7 | i | 6 | -467 | -20 | -3 | 16
COc1cc(/C=C/C(=O)c2ccc(NS(=O)(=O)c3ccc(C)cc3)cc2)ccc1OC(F)F | -2 | -4 | i | -6 | 2 | -12 | -7 | -17

Compounds listed so far that have a nitro group on carbon (3):
SMILES | MT1-MMP act inh | MT1-MMP act inh RFP | Rce1 inhib | eIF4H FP inh | HIV Env fusion | Yeast UUG start | CSC inhib | PABP FP inh | others
O=C(COC(=O)c1cccc([N+](=O)[O-])c1)NCc1ccc2c(c1)OCO2 | 0 | 1 | x | 0 | 20 | -1 | -2 | -10
O=C(NN=Cc1ccccc1Cl)c1ccc([N+](=O)[O-])cc1 | 5 | -3 | x | x | -13 | 0 | x | x
COc1cccc(-n2c(CN3CCN(c4cccc(C)c4)C(C)C3)nc3ccc([N+](=O)[O-])cc3c2=O)c1 (stereo not given) | -5 | -7 | i | -2 | x | -15 | 18 | 0

Other records
SMILES | MT1-MMP act inh | MT1-MMP act inh RFP | Rce1 inhib | eIF4H FP inh | HIV Env fusion | Yeast UUG start | CSC inhib | PABP FP inh | others
CCCNC(=O)c1cc(C2CCCCN2C(=O)OCC(C)C)on1 (stereo not given) | 2 | 6 | x | x | 15 | -2 | x | x
O=C(COC(=O)COc1ccc(Br)cc1)NCCC1=CCCCC1 | 7 | 8 | i | -4 | -3 | -14 | -14 | 9
CC(=O)Nc1nonc1-c1ccccc1 | 0 | 2 | i | 0 | 18 | -16 | -9 | -7
CN(CC(=O)NC(=O)NCc1ccco1)Cc1nc2ccccc2c(=O)[nH]1 | 0 | 2 | i | 69* | x | 2 | -4 | 41* | eIF4H FP inh retest=91*;PABP FP inh retest=54*
Cc1ccc(-c2n[nH]c(=S)n2/N=C/c2ccc(C(=O)O)cc2)cc1 | -1 | 3 | i | -13 | 1 | -17 | -10 | -6
CCCCC(NS(=O)(=O)c1ccc(OC)cc1)C(=O)O (stereo not given) | -2 | -2 | i | -3 | -31 | -11 | -7 | 10
Cc1c(C(=O)NCc2ccco2)oc2c(F)cccc12 | -1 | 6 | x | x | x | -16 | -11 | x
COc1ccc(S(=O)(=O)Nc2ccccc2N2CCOCC2)cc1[N+](=O)[O-] | 2 | 2 | i | -4 | 15 | x | 12 | -16
CC(=O)c1c(C)[nH]c(C(=O)COC(=O)c2cccnc2Cl)c1C | 6 | 3 | x | x | -1 | -18 | x | x
CC1CCc2c(sc3nc(CN4CCOCC4)nc(NS(=O)(=O)c4cccc([N+](=O)[O-])c4)c23)C1 (stereo not given) | 9 | -12 | i | 1 | 19 | 6 | 22 | -1
Cc1ccc(-c2nnc(Nc3ccc(O)cc3)c3ccccc23)cc1S(=O)(=O)NCCO | 0 | 0 | i | -2 | 16 | -3 | -5 | -8
C=CCn1c(-c2cc(Cl)ccc2OC)n[nH]c1=S | 4 | 3 | i | -2 | x | x | 17 | -7
O=C1CCCC2=C1C(c1ccccn1)Nc1ccc(C(=O)c3ccccc3)cc1N2 (stereo not given) | 4 | 3 | i | -5 | 12 | x | -12 | -1
Cc1ccnc(NS(=O)(=O)c2cc([N+](=O)[O-])ccc2C)c1 | 1 | 5 | i | -13 | -12 | x | 3 | -13
O=c1c2ccccc2nc(SCc2cc(F)ccc2F)n1C1CCCC1 | 13 | -1 | i | -5 | x | -18 | 42 | -12
Cc1ccsc1C(=O)OC(C)C(=O)NC1CCCCC1C (stereo not given) | -4 | 3 | x | x | -6 | 2 | x | x
C[C@H]1CN([C@@H](C)CO)C(=O)CCCn2nncc2CO[C@@H]1CN(C)C(=O)c1ccc(N2CCN(C)CC2)cc1 | 1 | 4 | x | x | -5 | -6&1 | x | x
O=C(O)C1(c2ccccc2)CCN(S(=O)(=O)c2cccc(Cl)c2)CC1 | -3 | 0 | x | -2 | 3 | -9 | 1 | 6
COc1ccc2cc(C3OCCO3)c(Cl)nc2c1 | 3 | -2 | i | -4 | -65 | x | -14 | 0
COCCCn1c(SCC(=O)NC2CCCCC2)nnc1-c1ccco1 | 0 | 4 | i | -4 | -3 | -17 | -1 | 6
COc1ccc(Nc2nc(-c3cccs3)cs2)c(OC)c1 | 3 | 1 | i | -1 | -276 | -21 | 2 | 7
CCCc1ccc(C(C)NC(=S)NCc2ccc(F)cc2)cc1 (stereo not given) | 0 | -5 | i | -4 | 41 | -19 | 30 | -5
CC(C)(C)NC(=O)CN(CC1CCCO1)C(=O)CNS(=O)(=O)c1ccc(F)cc1 (stereo not given) | -4 | 1 | i | 4 | 1 | 0 | -5 | 8

An excerpt; count on the stated rates, not on these rows.
